From PubChem
Beta apoptosis = inhibitors of cytokine-induced beta cell apoptosis, primary screen, luminescence. INS-1E cytokine-induced death, ATP luminescence, 48 h; percent of positive-control rescue, neutral wells zero. 300,000 tested, 0.8% active. protection from apoptosis, % (concentration not given with the values). AID 435005, 2010;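 active = all replicates at 75% or more, or half of them and the mean; inconclusive = half reach 75% but not the mean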;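 also: 0% = cytokine-treated negative control wells and 100% = positive control rescue; higher means more ATP so stronger rescue from cytokine killing; wells of about 40 µL received 100 nL stock; the first replicate is given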
Beta2AR agonist = beta2AR agonists driving receptor internalization, primary screen, cell-based, FAP fluorogen, flow cytometry. Beta-2 adrenergic receptor (Homo sapiens), P07550. Am2.2-beta2AR cells; reference of the scale not given here. response, % (no concentration beside the values). 340,000 tested, 0.43% active;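 active = response above a set limit, near 3 SD of response in nonfluorescent compounds, cut at about 42% in these data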;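 also: stock transfer was 100 nL into about 11 µL; a reference agonist was the positive control; negative values mostly stem from fluorescent compounds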
Target sequence (P07550 whole entry, looked up): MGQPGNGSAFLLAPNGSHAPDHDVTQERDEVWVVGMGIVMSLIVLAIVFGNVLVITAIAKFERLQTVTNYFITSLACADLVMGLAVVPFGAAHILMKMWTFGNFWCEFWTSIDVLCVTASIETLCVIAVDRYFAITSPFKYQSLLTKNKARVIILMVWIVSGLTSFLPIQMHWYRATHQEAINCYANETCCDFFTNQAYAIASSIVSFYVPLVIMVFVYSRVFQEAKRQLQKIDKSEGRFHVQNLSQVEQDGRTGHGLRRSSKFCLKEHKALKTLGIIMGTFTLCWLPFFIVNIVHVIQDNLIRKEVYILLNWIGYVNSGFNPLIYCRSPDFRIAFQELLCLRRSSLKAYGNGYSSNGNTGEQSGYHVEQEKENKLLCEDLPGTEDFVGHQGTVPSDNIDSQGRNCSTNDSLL
T cruzi repl = inhibitors of intracellular T. cruzi growth, primary screen, luminescence, NIH3T3 host cells. T. cruzi beta-gal in NIH3T3, 90 h. inhibition, % (test concentration not listed). 300,000 tested, 1.4% active. AID 1885, 2009;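 active = mean inhibition across valid replicates above about 55%, limit read from the data; inconclusive = mean below that limit but half or more replicates reach it; inactive = mean below it, under half of replicates reach it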;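 also: signal also drops with host cell toxicity which is not excluded here; 0% = plate median of DMSO wells and 100% = zero luminescence signal; higher percent means less beta-gal luminescence so fewer parasites; stock transfer was 50 nL into about 50 µL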
LANA-H2B inh = blockers of LANA interaction with H2A/H2B – biochemical, FP readout, HTS, primary screen; AID 2629, 2010; Protein LANA1 (Human herpesvirus 8 type P (isolate GK18)), Q9QR71; inhibition, % (no concentration beside the values); 320,000 tested, 0.6% active; cell-free LANA-H2A/H2B peptide, fluorescence polarization; in the data active = inhibition mostly above about 10%, no sharp cut-off; inactive = mostly below about 6.7%;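 also: stock transfer was 7.5 nL into about 10 µL; 0% = median of vehicle wells and 100% = median of positive control wells; one replicate is shown; the record names a cut of 25% in any replicate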
rRNA inh HTS = reduced GFP signal of wild-type E. coli, primary screen, bacterial rRNA inhibitor project, GFP/RFP fluorescence, OD600, single point; E. coli WT GFP vs humanized-ribosome RFP mutants, 24 h; active compounds read low; DMSO median 0, no signal -100; GFP signal change (wild-type ribosome), % (test concentration not listed); 350,000 tested, 1.6% active; AID 720706, 2013;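 active = significant combined selectivity score with lowered wild-type GFP, culture density cut under 30%, mutant RFP and density less affected; inactive = any of these conditions unmet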; also: one replicate is shown; some compounds called inactive have numbers as strong as hits
Bfl-1 A1 inh = caspase 3/7 activation in MEF A1-2A-BIM cells, primary screen, A1 inhibitor project, cell-based, luminescence, HTS; Caspase-Glo 3/7 luminescence, 3 h; percent of clofoctol response, vehicle zero; caspase activation, % (concentration not given with the values); 330,000 tested, 0.066% active;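 active = over half of replicate activation scores above 10%, or exactly half above 10 with the replicate mean above 10; inconclusive = replicate mean below 10 yet half the replicates above 10; inactive = over half of replicates below 10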;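 also: wells of about 30 µL received 50 nL stock; many hits fall short of the cut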
Calb FLC = C. albicans growth inhibition with fluconazole, primary screen, CaCi-2 strain, Alamar Blue fluorescence | 300,000 tested, 0.57% active | growth inhibition, % (no concentration beside the values) | C. albicans CaCi-2 (fluconazole-resistant clinical isolate) + fluconazole, 48 h | AID 1979, 2009;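 active = most replicates above 75%; inconclusive = exactly half above 75%; inactive = most below 75%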;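 also: all wells also contain fluconazole at 8 µg/ml as a sub-toxic cotreatment; 0% = median of DMSO wells and 100% = median of geldanamycin control wells; wells of about 8 µL received 7.5 nL stock; the first replicate is given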
ALR inh = inhibitors of human ALR sulfhydryl oxidase, primary screen, biochemical, H2O2 detection, HRP-luminol luminescence, single point; FAD-linked sulfhydryl oxidase ALR (Homo sapiens), P55789; purified ALR, DTT oxidation; inhibition, % (concentration not given with the values); 290,000 tested, 3.8% active; AID 485317, 2010;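 active = mean and each replicate at 75% or more; inconclusive = only one of the two met; inactive = neither met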;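 also: stock transfer was 7.5 nL into about 7.5 µL; 0% = neutral wells and 100% = wells with inactivated enzyme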
Target sequence (P55789 whole entry, looked up): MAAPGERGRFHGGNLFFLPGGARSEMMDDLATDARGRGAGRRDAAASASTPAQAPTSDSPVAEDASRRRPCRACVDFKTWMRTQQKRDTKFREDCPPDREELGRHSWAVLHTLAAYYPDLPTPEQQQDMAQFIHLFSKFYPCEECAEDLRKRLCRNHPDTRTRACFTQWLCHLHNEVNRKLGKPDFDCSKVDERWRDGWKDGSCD
rRNA inh HTS OD600 = recorded beside rRNA inh HTS, whose call it bears; OD600 change, %; measured here: OD600 growth;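 optical density of the mix in the first replicate; 0 = DMSO median and -100 = no signal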
rRNA inh HTS RFP = second read-out of rRNA inh HTS, no call of its own (marks repeat the call); RFP signal change, %; measured here: RFP humanized mutant strains;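 first replicate; 0 = DMSO median and -100 = no signal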
Starred values were filed as active, the others as inactive; ? = inconclusive; nt = no result given; & = joins results of further samples. An excerpt; count on the stated rates, not on these rows.

SMILES	Beta apoptosis	Beta2AR agonist	T cruzi repl	LANA-H2B inh	rRNA inh HTS	rRNA inh HTS OD600	rRNA inh HTS RFP	Bfl-1 A1 inh	Calb FLC	ALR inh
CCn1c(-c2cc(Br)ccc2O)n[nH]c1=S	0	6	1	2.1	-5	-4	-4.9	1.9	-2	98*
C1=C(CCNCC2CC2)CCCC1	-7	0	-12	5.7	10	3	-7.5	-0.5	3	-10
CCOC(=O)/C(C#N)=N\Nc1cc(Cl)ccc1OC	2	-1	2	4.1	15	7	4.7	-0.5	0	-4
S=C(Nc1cccc(Cl)c1)N1CCOCC1	-5	-4	-25	-5.5	-12	-5	6.2	0.9	-21	1
CN(CCc1ccccc1)C1CCCN(S(=O)(=O)CC(F)(F)F)C1 (centres undefined)	-3	3	13	0.8	0	1	-1.8	0.7	2	0
Cc1ccc(SCC(=O)OCn2nnc3ccccc3c2=O)cc1C	-6	-3	-6	nt	-1	-2	0.2	-0.9	8	nt
S=c1[nH]nc(Cc2noc3ccccc23)n1-c1ccccc1	-2	7	-2	-0.3	-1	1	-0.9	-0.3	2	86*
CSc1[nH]c(=O)c(C(=O)O)cc1C#N	-4	-5	-6	2.6	5	10	-2.7	-6.8	5	-5
O=C1C2C3C=CC(C3)C2C(=O)N1CCN1CCN(S(=O)(=O)c2ccc3ccccc3c2)CC1 (centres undefined)	4	3	-1	2.7	-10	-18	-9.6	2.1	-2	-12
CCCCn1c(SC(C)C(N)=O)nc2cc(C(=O)OC)ccc2c1=O (centres undefined)	-4	2	12	-0.2	nt	nt	nt	-0.4	-7	-4
COCCNC(=O)C(=O)NNC(=O)c1ccccc1OC	-7	5	5	1.6	21	13	3.5	0.3	-8	nt
Cc1ccc(N2CCN(C(=O)N3CCCC3)CC2)cc1C	3	6	-10	-4.6	nt	nt	nt	-1.2	4	96*
C=CCSc1nc(=O)n2cccc(C)c2n1	-4	-2	-12	-8.5	14	5	-7.9	0.0	-17	-9
CCN(CCNC(=O)C1CCN(S(C)(=O)=O)CC1)c1ccccc1	-2	6	-8	-1.1	nt	nt	nt	-0.3	-6	99*
CSCC[C@H](NC(=O)OC(C)(C)C)C(=O)N1CCC(C(=O)NCC(=O)Nc2ccc(C)cc2)CC1	-4	0	-3	3.0	7	14	-2.4	-0.3	-2	-17
Cn1c(=O)c(C(=O)COc2ccc(C#N)cc2)c(N)n(Cc2ccccc2)c1=O	6	1	-8	6.1	11	13	2.3	0.1	-21	1
O=C(c1noc2c1CSc1ccccc1-2)N1CCN(c2ccc(Cl)cc2)CC1	-1	4	3	1.2	-6	10	20	-0.1	5	0
CCCn1ncc(CN2CCN(Cc3ccsc3)C(CCO)C2)c1C (centres undefined)	-2	9	-1	0.9	21	5	4.0	0.9	2	-3
O=C(c1cc(COc2ccc(F)cc2Cl)on1)N1CCCCCCC1	-4	-2	9	3.7	-50	-75	-11	0.8	-21	-3
CCOC(=O)N/N=C/c1ccc(OCCSc2ccc(Cl)cc2)c(OC)c1	-1	2	34	0.0	nt	nt	nt	-0.2	11	-7
FC(F)(F)c1nc(Sc2ncccc2C(F)(F)F)n[nH]1	nt	-2	nt	3.3	2	2	0.8	0.2	5	0
COc1cccc(NC=C2C(=O)OC(C)(C)OC2=O)c1	-2	-1	-13	0.9	nt	nt	nt	-0.4	18	-13
CCOCc1nnc(NC(=O)c2cccc(OC)c2)s1	-5	-5	10	4.3	5	0	-5.1	0.7	-13	-5
CC1(C)OC(=O)C(=CNc2cccc(C(=O)O)c2)C(=O)O1	-7	2	-11	1.1	nt	nt	nt	-1.2	-1	-6
O=C(CN1N=C(c2ccc(Cl)cc2)CCC1=O)NCc1cccs1	-1	nt	-11	2.3	nt	nt	nt	0.2	6	-23
Cc1ccc(S(=O)(=O)/N=C(\c2ccccc2)N(C)S(=O)(=O)c2ccc(C)cc2)cc1	-2	-10	5	-1.5	nt	nt	nt	-0.2	-6	2
COc1ccc(S(=O)(=O)N2CCCCCC2)cc1NC(=O)CC1OC(=O)c2ccccc21 (centres undefined)	-5	6	11	1.8	12	13	0.3	-0.1	8	-1
CS(=O)(=O)N1CCN(c2ccccc2NC(=O)c2cc(Br)ccc2Cl)CC1	-5	-5	3	-0.5	3	7	-0.1	-0.3	-5	26
CSc1ccccc1NC(=O)C(C)N1C(=O)c2ccccc2S1(=O)=O (centres undefined)	0	-3	-1	-0.9	5	0	0.5	0.8	3	-4
COc1cc(NC(=O)c2ccc(Cl)cc2)c(OC)cc1NC(=O)CN1CCCCC1	1	1	11	-4.6	-26*	0.0*	4.9*	-0.1	-32	-21
COC(=O)c1cc2sc(Cl)cc2n1CC(=O)N1CCCc2ccccc21	-9	-6	22	0.1	nt	nt	nt	-0.3	11	-11
CCOc1cc(/C=N/n2cnnc2)ccc1OS(=O)(=O)c1ccc(C)cc1	5	11	45	-5.0	-32	-31	-5.2	-0.5	43	-4
CC(C)c1ccc(NC(=O)c2cnn(-c3ccccc3)c2NC(=O)c2ccco2)cc1	6	9	-11	-2.5	nt	nt	nt	-0.1	-4	4
O=C(O)COCC(=O)N1CCN(c2cc(C(F)(F)F)nc3ccccc23)CC1	3	-3	-10	-2.0	8	1	0.2	0.7	5	-3
CN1CCN(C(=O)c2ccc(CSc3nc4ccncc4n3Cc3ccc(F)cc3)cc2)CC1	-4	3	-3	-2.1	4	6	0.5	0.1	3	-8
Cc1c(Cc2ccccc2)c(=O)oc2cc(OCC(=O)N3CCC(C(=O)O)CC3)ccc12	nt	0	?	-4.9	-10	-14	-0.6	0.5	-1	93*
CCc1ccccc1N=C1SCC(=O)N1C	-1	3	-9	-0.3	nt	nt	nt	0.5	0	0
COc1ccc(S(=O)(=O)NCc2ccc3c(c2)OCO3)cc1C(=O)O	-4	0	11	-3.6	nt	nt	nt	-0.6	-3	-18
CC(C)(C)OC(=O)NCCCC[C@H](NC(=O)c1nc[nH]c1C(=O)N1CCc2ccccc2C1)C(=O)OC(C)(C)C	2	2	4	0.5	0	-9	10	0.8	6	1
O=C(NCCc1nc2ccccc2[nH]1)c1ccc(Cl)c([N+](=O)[O-])c1	0	13	40	-0.4	-19	-10	-1.0	0.2	-4	20
Nc1nc(C2CCCCC2)cs1	-4	-9	-3	0.7	nt	nt	nt	0.4	14	-2
Clc1ccccc1-c1nnc(-c2ccc3c(c2)OCO3)o1	4	1	-12	3.4	3	-4	-0.1	-7.0	3	14
NC(N)=NCc1cccc(I)c1	27	-5	nt	-0.9	nt	nt	nt	-0.3	nt	1
CN(CCc1ccccn1)C(=O)Nc1ccc(C(C)(C)C)cc1	-4	5	3	-4.8	-15	-6	0.2	-0.6	-2	4
COc1ccccc1CNC(=O)C[n+]1ccccc1	-5	1	-6	0.6	nt	nt	nt	-0.1	-11	-1
COC(=O)Nc1nc(-c2ccc(F)cc2)c(C)s1	nt	0	5	0.8	2	-7	1.0	1.0	-5	21
Cc1ccc(-n2cc(-c3ccc([N+](=O)[O-])cc3)[nH]c2=S)c(C)c1	1	-3	-41	-1.4	-4	-11	-1.9	1.1	?	-16
COc1ccc(NC(=O)c2cc(-c3ccccn3)nc3ccccc23)cc1S(=O)(=O)N(C)C	2	12	nt	-0.3	-10	-5	3.3	-0.8	nt	-4
Cc1noc(C)c1C(=O)NC(C)c1ccc(Cl)cc1Cl (centres undefined)	0	0	1	1.3	10	10	0.7	0.2	4	-5
O=C(N/N=C/c1cccc([N+](=O)[O-])c1)c1cc(-c2ccccc2)nc2ccccc12	-6	-1	-7	-1.5	14	12	0.2	-2.1	0	-3
CCCN1C(=O)c2ccc(C(=O)Nc3cc(C)on3)cc2C1=O	5	-20	-19	-2.3	nt	nt	nt	0.6	1	nt
Cc1cc2c(c(=O)n1Cc1ccco1)C(c1ccccc1)C(C#N)=C(N)O2 (centres undefined)	-2	5	4	0.1	nt	nt	nt	0.3	9	8
Cc1ccccc1N1CCN(C(=O)c2ccc(Oc3ccc(C(F)(F)F)cn3)cc2)CC1	4	-1	58*	-1.2	nt	nt	nt	0.3	-4	-37
O=C(COC(=O)C1CC2CCCC(C1)C2=O)Nc1cccc(F)c1 (centres undefined)	6	-7	nt	3.3	12	3	0.4	0.0	nt	0
O=C(CCCN1C(=O)/C(=C/c2ccccc2Cl)SC1=S)NNC(=O)c1cccnc1	0	-3	2	1.1	-6	-10	1.7	-1.1	8	-20
Cc1ccc(CNC(=O)C(=O)c2cn(CC(=O)N3CCOCC3)c3ccccc23)cc1	-2	-5	5	5.8	5	-1	1.2	0.6	3	-6
COc1ccc(NC(=O)N(C)C[C@H]2Oc3c(NS(=O)(=O)c4cccs4)cccc3C(=O)N([C@@H](C)CO)C[C@@H]2C)cc1	-6	4	nt	-6.7	0&2	5&8	-3.2&-2.2	-0.9	nt	0
CC(C)Cn1c(N)c(C=O)c(=O)[nH]c1=O	-2	10	-2	-0.7	15	6	0.6	-0.3	-4	-7
COc1ccc(C(=O)NCC(=O)NCC(c2ccco2)N(C)C)cc1OC (centres undefined)	-6	-5	3	0.6	35	25	5.1	0.2	-5	-80
O=C(Nc1ccc(N2CCCC2)cc1)c1ccccc1F	4	7	14	-3.3	nt	nt	nt	-0.8	-16	22

Continued:
SMILES	Beta apoptosis	Beta2AR agonist	T cruzi repl	LANA-H2B inh	rRNA inh HTS	rRNA inh HTS OD600	rRNA inh HTS RFP	Bfl-1 A1 inh	Calb FLC	ALR inh
C=CCc1ccc(OCCCCNC2CCCC2)c(OC)c1	-1	3	28	-2.2	-2	0	1.3	0.2	-5	-6
O=C(CSc1nnnn1-c1ccc(O)cc1)c1ccc(F)cc1	-8	10	-10	-4.3	-24	-18	-2.4	0.2	-5	nt
CCOC(=O)c1c(C)sc(Sc2ccc(Cl)cc2[N+](=O)[O-])c1OC	-4	0	2	0.6	nt	nt	nt	0.0	-14	7
Cc1cccn2cc(-c3cccc(S(=O)(=O)N4CC(C)OC(C)C4)c3)nc12 (centres undefined)	1	6	0	2.7	-4	-6	2.1	0.4	4	97*
CCC1CCCCN1S(=O)(=O)c1ccc(NC(=O)C2CCN(C(=O)c3ccco3)CC2)cc1 (centres undefined)	7	7	-13	-2.7	5	-6	1.5	0.6	-11	1
CCC(CC)c1nnc(NC(=O)CN2C(=O)c3ccccc3C2=O)s1	0	6	-21	-0.9	10	-7	-2.2	1.7	3	1
Cc1ccccc1/C=N/NC(=O)Cn1cnc([N+](=O)[O-])n1	-12	9	7	-0.1	nt	nt	nt	0.2	-26	-10
